# ERG-DNA inh: qHTS for Small Molecule Inhibitors of the ERG Ets/DNA interaction; fluorescence polarization, His-ERG Ets domain / labelled DNA; AID 624246, 2012; Potency, µM (doses to about 76.9 µM), for inactives: at the top dose FP activity, negative = inhibition, actives largely listed as inhibitors; actives 0.028% (n = 370,000); active = well fitted inhibition curve with a large enough effect in the polarisation, with a control signal flat; inconclusive = small, poorly fitted or top-dose-only effect, or effect the other way, or a change in a side signal; inactive = no such curve, though single readings can be large or run the other way; the % refers to the polarisation;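 also: polarization taken with two DNA probes labelled with fluorescein and Texas red; potency is read from the fitted curve at half-maximal effect; % of control where 0% means no effect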
#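 His-tagged ERG Ets domain (1 uM in the protein solution; 300mM KCl, 50mM Tris-HCl, 1mM EDTA, 1mM DTT, pH 7.5) received compound, then a probe mix of 5 nM fluorescein-DNA and 100nM Texas-615-DNA. Fluorescence polarization was read for both dyes.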
# Pol kappa inh: qHTS for Inhibitors of Polymerase Kappa | DNA polymerase kappa (Homo sapiens), Q9UBT6 | purified Pol kappa, fluorescent DNA synthesis assay, 10 min | Potency, µM (doses to about 107 µM), without a hit: at the highest dose activity, negative = inhibition, usual class: inhibitors | actives 0.53% (n = 400,000) | AID 588579, 2011; also: potency is read from the fitted curve at half-maximal effect; % is scaled to controls: 0 for no effect and ±100 for the full control effect
#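 Kinetic fluorescence screen: compound preincubated 15 min RT with 10 nM enzyme; 50 nM substrate (final) initiates; reads at 0/10 min.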
# Apoferritin bind: qHTS Assay for Identification of Novel General Anesthetics; Ferritin light chain (Equus caballus), P02791; apoferritin/1-aminoanthracene competitive binding, fluorescence; Potency, µM (top dose mostly 77.5 µM), for inactives: at the top dose activity change, negative = displacement, hits mostly inhibitors; actives 0.074% (n = 350,000); AID 485281, 2010; also: potency is read from the fitted curve at half-maximal effect; % is scaled to controls: 0 for no effect and ±100 for the full control effect; nearly all actives have a fitted effect of over 20% in size
# Target sequence (P02791 2-175 limits assumed): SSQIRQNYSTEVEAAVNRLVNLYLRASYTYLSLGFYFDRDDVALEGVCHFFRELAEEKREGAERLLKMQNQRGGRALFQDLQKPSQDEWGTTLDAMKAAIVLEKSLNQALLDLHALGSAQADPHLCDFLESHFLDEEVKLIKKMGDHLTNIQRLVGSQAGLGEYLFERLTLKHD
#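 Probe: 1-aminoanthracene (50% saturated, PBS). Protein: horse-spleen apoferritin, 10 uM. Incubation: 10 min, room temperature. Detection: 380 nm excitation, 535 nm emission. Analysis: normalized response, four-parameter Hill.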
# BLM inh: qHTS Assay for Inhibitors of Bloom's syndrome helicase (BLM); RecQ-like DNA helicase BLM (Homo sapiens), P54132; Potency, µM (doses to about 56.1 µM), for the others: top-dose activity change, negative = inhibition, usual class: inhibitors; actives 0.2% (n = 350,000); recombinant BLM DNA unwinding, fluorescence dequenching;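 also: potency is read from the fitted curve at half-maximal effect; plate controls were vehicle for no effect and no enzyme for full effect; nearly all actives have a fitted effect of over 35% in size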
# ALOX12 inh: Primary qHTS assay for inhibitors of human arachidonate 12S-lipoxygenase (ALOX12): Round 2 | Polyunsaturated fatty acid lipoxygenase ALOX12 (Homo sapiens), P18054 | purified 12hLO, xylenol orange hydroperoxide absorbance | Potency, µM (highest dose often 108 µM), inactives show at the top dose activity change, negative = inhibition, most hits filed as inhibitors | actives 1.1% (n = 580,000) | AID 1671190, 2021; also: potency is read from the fitted curve at half-maximal effect; % is scaled to controls: 0 for no effect and ±100 for the full control effect
#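 Purified human 12hLO at 150 nM in 25 mM Hepes, 0.01% Triton X-100, pH 7.0, preincubated 15 min at room temperature with compound. Reaction started with 40 uM arachidonic acid, 30 min at room temperature. Hydroperoxide measured by Fe-xylenol orange, 573/405 nm absorbance ratio.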
# POLI inh: qHTS for Inhibitors of Polymerase Iota; DNA polymerase iota (Homo sapiens), Q9UNA4; AID 588590, 2011; actives 1% (n = 390,000); Pol iota fluorescent replication assay, 10 min; Potency, µM (highest dose often 115 µM), for the others: top-dose activity, negative = inhibition, most hits filed as inhibitors; also: potency is read from the fitted curve at half-maximal effect
# Target sequence (Q9UNA4 whole entry, looked up): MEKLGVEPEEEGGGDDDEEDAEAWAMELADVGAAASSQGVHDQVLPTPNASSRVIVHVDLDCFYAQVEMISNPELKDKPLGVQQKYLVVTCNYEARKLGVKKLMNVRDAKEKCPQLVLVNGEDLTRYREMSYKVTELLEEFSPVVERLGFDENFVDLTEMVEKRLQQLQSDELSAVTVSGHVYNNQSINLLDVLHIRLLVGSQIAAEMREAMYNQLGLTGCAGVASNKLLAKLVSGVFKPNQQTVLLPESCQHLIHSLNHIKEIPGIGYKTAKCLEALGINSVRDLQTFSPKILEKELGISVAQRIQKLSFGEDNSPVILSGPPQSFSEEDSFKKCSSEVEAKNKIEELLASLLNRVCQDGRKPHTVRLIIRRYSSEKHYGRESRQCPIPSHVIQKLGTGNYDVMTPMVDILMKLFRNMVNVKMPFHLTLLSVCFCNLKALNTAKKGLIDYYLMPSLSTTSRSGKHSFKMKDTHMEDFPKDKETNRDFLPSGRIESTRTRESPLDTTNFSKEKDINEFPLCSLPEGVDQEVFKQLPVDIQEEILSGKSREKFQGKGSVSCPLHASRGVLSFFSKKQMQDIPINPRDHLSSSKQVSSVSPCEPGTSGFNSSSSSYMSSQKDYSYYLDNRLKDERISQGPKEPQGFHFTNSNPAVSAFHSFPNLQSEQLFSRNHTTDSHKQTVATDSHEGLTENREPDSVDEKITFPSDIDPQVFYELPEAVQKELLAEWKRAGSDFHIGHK
#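 Fluorescent replication assay read twice, at 0 min and 10 min after adding 50 nM (final) substrate. Enzyme (10 nM) and compounds were first incubated 15 min at room temperature; enzyme-free buffer wells were negative controls.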
# TRHR agonist: qHTS for Small Molecule Agonists and Allosteric Enhancers of Human TRH Receptor: Primary Screen for Agonists | Thyrotropin-releasing hormone receptor (Homo sapiens), P34981 | TRHR cells, calcium flux fluo-8, FDSS agonist mode | activation, % at 2 µM | actives 0.18% (n = 360,000) | AID 493084, 2011; in the data active = activation above about 30%; also: 0% is about no effect
#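 TRHR-expressing cells, plated overnight in medium with 10% serum, were loaded with fluo-8 calcium dye at room temperature. After a 10 s baseline, library compound was pin-added and calcium release was recorded kinetically (ex 480/em 530) as agonist response.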
# * marks the source's active call; other numbers are inactive results; ? = inconclusive; · = not tested or not shown; & = joins results of further samples; ! = a repeat was not active; [ ] = another dose, or the depositor's remark. Unless noted, calls follow the shape of the dose curve; as a rule, active = well fitted curve in the direction sought with a large enough effect; inconclusive = small, poorly fitted or top-dose-only effect, or another doubt; inactive = no such curve, though single readings can be large; an effect the other way counts as inactive or inconclusive. Only part of the results is shown. The share of hits here may be higher or lower than overall.
SMILES,Apoferritin bind,ALOX12 inh,Pol kappa inh,POLI inh,BLM inh,ERG-DNA inh,TRHR agonist
Cc1cc(=O)oc2cc(OCC(=O)c3ccccc3)ccc12,-14%,-3%&10%,-5%,143%[activator],-1%,-5%,1.2
O=C(c1cc2ccccc2oc1=O)N(Cc1ccco1)CC1CCCO1 (stereo not drawn),-6%,0%,0%,8%,0%,-5%,-0.1
COc1ccc(-c2cc(=O)c3cc(OC)ccc3o2)cc1,5%&1%,-3%,-10%[60.1 µM],-19%,-12%&-4%,-8%,-0.3
Cc1nn(-c2ccccc2)c(C)c1C(=O)NCc1ccccc1F,-5%,-11%,1%,28%,-2%,-4%,-0.8
O=C(N/N=C1\CCCc2ccccc21)C(O)c1ccccc1 (stereo not drawn),-12%,24%,-2%,12%,-1%,·,-0.2
Cc1ccc([N+](=O)[O-])cc1-c1ccc2cccc(C)c2n1,-21%,-14%,-5%,-4%,-13%,-2%,0.3
CCc1ccccc1N/N=C(/C)c1c(O)cc(C)oc1=O,-16%,?,-11%,104%[activator],-7%,-9%,0.8
CC1CCN(S(=O)(=O)c2cn(CC(=O)Nc3ccc(OC(F)(F)F)cc3)cn2)CC1,-3%,14%,-16%,13%,-11%,-6%,-0.1
COc1ccc2cc3cc(C(=O)NCCCN4CCc5ccccc5C4)sc3nc2c1,-2%,-29%,-2%,5%,37%[activator],-6%,-0.2
Cc1cccc(NC(=O)CCS(=O)(=O)c2cc3c(cc2Cl)NC(=O)CO3)c1,-9%,-30%,4%,-16%,1%,2%,0.3
Cc1noc(C)c1S(=O)(=O)Nc1cccc(C(F)(F)F)c1,-14%,126%[activator],-1%,33%[activator],-4%,1%,1.0
N#Cc1cccc(-c2nccc(-n3ccnc3)n2)c1,·,25µM*,7%[60.1 µM],·,-5%,·,·
O=C(NC(=S)NCC1CCCO1)c1ccc(Cl)cc1Cl (stereo not drawn),3%,6%,-12%,11%,1%,0%,-0.2
N#CCCN(CCC#N)C(=O)c1ccc2c(c1)OCO2,-3%,-18%,4%,6%,-4%,-2%,0.1
O=[N+]([O-])c1cc(C(F)(F)F)ccc1NCCOc1ccccc1,-15%,-3%,-14%,6%,-11%,·,-0.4
Cc1nc(NC(=O)CSc2nnc(C3CC3)n2C)sc1C,1%,?,8%,99%[activator],2%,-7%,0.8
Cc1ccc(C(=O)N[C@H](C(=O)OCc2cc(=O)n3c(n2)sc2ccccc23)C(C)C)cc1,-15%,-19%,?,?,-3%,6%,-0.9
Cc1ccc(C)n1-c1sccc1C(=O)O,9%,·,0.89µM*,-99%,-17%,-6%,0.4
COc1cc(/C=C2\CCCc3c2nc2ccccc2c3C(=O)O)cc([N+](=O)[O-])c1O,3%,?,79µM*,13µM*,-6%,9%,0.5
COc1ccc(C(CNc2ncnc3sccc23)N(C)C)cc1OC (stereo not drawn),0%,2%,-11%,56%[activator],-3%,8%,-0.4
Cc1nc2cnc(Oc3ccccc3)nc2n(Cc2cccs2)c1=O,·,?,-1%[60.1 µM],·,-5%,·,·
CC(C)NC(=O)CC(=O)NN=C1CCCCC1,-6%,0%,-7%,45%[activator],-6%,-8%,0.5
CCC(C)c1ccccc1OCCCNC1CCCC1 (stereo not drawn),-13%,-16%,0%,28%,-1%,15%,3.5
CCOC(=O)c1c(NC(=O)COC)sc(C(C)=O)c1C,-16%,1%,5%,26%,2%,1%,33*
COc1cc(C(=O)NCc2cccc3ccccc23)ccc1OCc1ccccc1,-2%,0%,-11%,8%,-2%,0%,0.4

# 5 compounds out of the list above, arranged by the value under ALOX12 inh, high to low.
structure	ALOX12 inh
CC1CCN(S(=O)(=O)c2cn(CC(=O)Nc3ccc(OC(F)(F)F)cc3)cn2)CC1	14%
CCOC(=O)c1c(NC(=O)COC)sc(C(C)=O)c1C	1%
CC(C)NC(=O)CC(=O)NN=C1CCCCC1	0%
O=[N+]([O-])c1cc(C(F)(F)F)ccc1NCCOc1ccccc1	-3%
CCC(C)c1ccccc1OCCCNC1CCCC1 (stereo not drawn)	-16%

# Continued:
SMILES,Apoferritin bind,ALOX12 inh,Pol kappa inh,POLI inh,BLM inh,ERG-DNA inh,TRHR agonist
CS/C(N)=N/C(=S)Nc1cccc(Cl)c1,-15%,-24%,-7%,40%[activator],-11%,0%,0.7
CCOc1cc(/C=C(\C#N)C(=O)Nc2cccc(C(=O)O)c2)ccc1OCc1ccccc1Cl,5%,3%,0%,?,-18%,-2%,0.8
CCOc1ccc(NC(=S)NCCCn2ccnc2)cc1,-10%,7%,-18%,-5%,-2%,-15%,1.1
CCOc1ccc(NC(=O)CSc2nnc(Cn3cnc([N+](=O)[O-])n3)n2CC)cc1,-7%,-7%,-17%,218%[activator],8%,0%,-0.1
O=[N+]([O-])c1cc(CN2CCN(c3cccc(C(F)(F)F)c3)CC2)c2cccnc2c1O,?,?,-26%,84%[activator],-15%,0%,-0.3
Cc1cccc(Nc2ccccc2C(=O)OCC(=O)NCc2ccco2)c1C,204%[activator],?,-9%,?,-17%,8%,-0.2
O=C(Nc1ccc(Cl)cc1)C1CCCCN1S(=O)(=O)c1ccccc1 (stereo not drawn),·,?,-11%,-5%,·,29%,·
COc1cccc(NC(=O)CCS(=O)(=O)c2cc3c(cc2Cl)NC(=O)CO3)c1,-2%,-1%,3%,6%,1%,12%,0.5
CSc1nc(-c2ccco2)nn1C(=O)c1ccccc1Cl,-4%,12%,-6%,117%[activator],-1%,-8%,-0.6
CNC(=O)CSc1nnc(-c2ccco2)n1-c1ccc(C)cc1,0%,16%,1%,0%,-3%,-3%,0.1
CCCCC1=CC2=C(c3ccco3)C(=O)C(C)(OC(=O)c3ccc(OC)cc3)C(=O)C2=CO1 (stereo not drawn),·,·,·,·,-3%,·,·
O=C(/C=C/c1ccc2c(c1)OCO2)NCc1ccco1,-8%,-19%,-45%,?,-12%,-8%,-0.5
Cc1cc(C)c(S(=O)(=O)Nc2cccnc2)c(C)c1,1%,5%,-15%,0%,3%,-1%,1.0
CCCc1cc(=O)[nH]c(SCC(=O)Nc2c(C)cccc2C)n1,-4%,24%,-5%,?,-2%,0%,0.5
O=S(=O)(NCc1ccc2c(c1)OCO2)c1ccc(Cl)s1,?,?,-16%,22%,-6%,8%,-0.1
CCOc1ccc2nc(N(CCN(CC)CC)C(=O)/C=C/c3cccs3)sc2c1,?,-18%,-1%,1%,-1%,21%,0.8
Cc1ccccc1OCC(=O)NNC(=O)Cc1ccc(S(=O)(=O)N2CCOCC2)s1,·,8%,-8%,-24%,·,-9%,0.1
CC(CNC(=O)CCS(=O)(=O)c1cc2c(cc1Cl)NC(=O)CO2)c1ccccc1 (stereo not drawn),-13%&-2%,219%&-22%[activator],-17%&3%,-17%&19%,2%&1%,11%&-1%,-0.3&0.1
COc1cc(C)c(S(=O)(=O)NCc2ccc3c(c2)OCO3)cc1C,-8%,29%,2%,28%,-4%,-15%,-0.2
COc1ccc(CNc2nc(-c3cccnc3)nn2C(=O)c2ccco2)cc1,6%,17%,-19%,3%,-5%,5%,0.4
OCCc1ccc(O)c(-n2nc3ccccc3n2)c1,-1%,0%,-5%,42%[activator],-2%,-4%,0.2
COc1ccc(C(=O)/C=C/c2cc(C(=O)O)cc3c2OCOC3)c(O)c1,16%,-24%,-27%,?,-5%,15%,-1.0
CC1=C(C(N)=O)C(c2cccc(OCc3ccccc3)c2)n2nnnc2N1 (stereo not drawn),?,5%,2%,-15%,-2%,-18%,0.6
CC(C)CCN1CCN(Cc2cccn2-c2ccc(Cl)cn2)CC1CCO (stereo not drawn),-3%,0%,-6%,60%[activator],-2%,-16%,-1.9
Nc1ccn([C@H]2CC[C@@H](CO)O2)c(=O)n1,6%&2%&0%,-4%,-11%[60.1 µM],6%[58.9 µM],1%&2%&-5%&-5%,16%,-0.2&0.7

# Complete entries from above. Order of values: Apoferritin bind | ALOX12 inh | Pol kappa inh | POLI inh | BLM inh | ERG-DNA inh | TRHR agonist
# `O=[N+]([O-])c1cc(CN2CCN(c3cccc(C(F)(F)F)c3)CC2)c2cccnc2c1O` in the list: ? | ? | -26% | 84%[activator] | -15% | 0% | -0.3
# `COc1cccc(NC(=O)CCS(=O)(=O)c2cc3c(cc2Cl)NC(=O)CO3)c1` in the list: -2% | -1% | 3% | 6% | 1% | 12% | 0.5

# Following part
SMILES,Apoferritin bind,ALOX12 inh,Pol kappa inh,POLI inh,BLM inh,ERG-DNA inh,TRHR agonist
CC1=C(C(=O)Nc2cccnc2)C(c2cccnc2)n2ncnc2N1 (stereo not drawn),-10%,2%,-7%,4%,5%,-15%,0.0
CC1(C)OC(=O)C(C(c2ccccc2)C(C#N)C(N)=O)=C(O)O1 (stereo not drawn),10%,?,-10%,13%,1%,9%,1.0
N#Cc1ccc(/C=N/NC(=O)c2cc(-c3cccs3)nc3ccccc23)cc1,16%,?,2%,-4%,4%,-5%,0.4
Cc1cc(C)c2c(C)c(C(=O)NCc3ccc(S(N)(=O)=O)cc3)oc2c1,-3%,-16%,-15%,?,-8%,14%,-0.5
O=C(NCc1ccco1)Nc1ccc(OC(F)(F)F)cc1,3%,?,9%,19%,-6%,5%,0.2
O=C(/C=C/c1ccc(Cl)cc1)NCc1ccco1,-2%,19%,8%,-2%,2%,10%,-0.5
O=C(COC(=O)c1ccc(F)cc1Cl)NCc1ccco1,·,?,?,22µM*,·,-2%,-0.3
CCCCOc1ccc2c(c1)/C(=C(\C(Cl)=C(Cl)Cl)[N+](=O)[O-])N2,79%[activator],?,3%,40%,-14%,0%,2.5
Cc1ccc2nc3c(nc2c1)-c1ccccc1C3=O,-6%,0%,-6%,-13%,-4%,9%,0.3
N#CC1=C2SCN(c3ccccc3)CN2C(=O)CC1c1c(Cl)cccc1Cl (stereo not drawn),-14%,3.2µM*,-60%&-1%,89µM*!,-1%,-9%,0.9
CCc1ccc(N2CC(C)Cn3c2nc2c3c(=O)[nH]c(=O)n2C)cc1 (stereo not drawn),-2%,?,-13%,4%,-1%,3%,0.0

# Compound activity as filed in PubChem BioAssay.
